# RanGTP-Imp inh: inhibitors of RanGTP-importin-beta interaction, primary screen, biochemical, FRET, CFP-Ran, YFP-importin-beta, homogeneous. cell-free CFP-Ran/YFP-importin-beta FRET ratio. inhibition, % (test concentration not listed). 300,000 compounds, 1.1% hits. AID 2216;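 active = most replicates above 15%; inconclusive = exactly half above 15%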;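 note: 0% = DMSO wells and 100% = Ran loaded with GDP instead of GTP; wells of about 40 µL received 100 nL stock; the first replicate is given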
# MLL AF4-AF9 inh: inhibitors of human MLL-AF4/AF9 interaction | AlphaScreen, biotin-AF4 peptide binding to FLAG-AF9 | P42568 | inhibition, % at 10 µM | 350,000 compounds, 0.47% hits | AID 651704;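 active = every replicate reaching a set inhibition limit, whatever the replicate mean, cut at about 25% in these data; inconclusive = mean inhibition reaches that limit but some replicates miss it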;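 note: 0% = plate neutral control median and 100% = total signal loss; the record names both 10 and 1 µM as test concentration; the first replicate is given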
# Target sequence (P42568 whole entry, looked up): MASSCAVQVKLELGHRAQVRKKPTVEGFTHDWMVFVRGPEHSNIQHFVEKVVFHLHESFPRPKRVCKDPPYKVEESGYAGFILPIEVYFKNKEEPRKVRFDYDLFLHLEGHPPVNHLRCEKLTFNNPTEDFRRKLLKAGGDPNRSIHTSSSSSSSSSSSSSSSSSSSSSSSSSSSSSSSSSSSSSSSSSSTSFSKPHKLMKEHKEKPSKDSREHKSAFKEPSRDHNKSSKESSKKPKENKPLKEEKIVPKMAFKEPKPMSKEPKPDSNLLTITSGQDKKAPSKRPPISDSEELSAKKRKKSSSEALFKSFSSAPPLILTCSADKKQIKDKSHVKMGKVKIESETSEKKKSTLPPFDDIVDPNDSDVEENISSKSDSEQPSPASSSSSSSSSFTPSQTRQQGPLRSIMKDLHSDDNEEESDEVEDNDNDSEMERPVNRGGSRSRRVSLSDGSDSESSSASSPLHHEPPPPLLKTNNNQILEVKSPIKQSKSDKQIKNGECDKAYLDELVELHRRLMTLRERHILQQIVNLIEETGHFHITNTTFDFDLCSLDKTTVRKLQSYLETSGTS
# Beta cell apopt: blocks beta cell apoptosis. INS-1E cytokine-induced death, ATP luminescence, 48 h; percent of positive-control rescue, neutral wells zero. protection from apoptosis, % (concentration not given with the values). 300,000 compounds, 0.8% hits. AID 435005;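 active = all replicates at 75% or more, or half of them and the mean; inconclusive = half reach 75% but not the mean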;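 note: 0% = cytokine-treated negative control wells and 100% = positive control rescue; higher means more ATP so stronger rescue from cytokine killing; wells of about 40 µL received 100 nL stock; the first replicate is given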
# FGF22 binding: shifts melting point of recombinant human FGF22. Q9HCT0. recombinant FGF22 thermal shift, SYPRO orange fluorescence; percent of sucrose octasulfate shift, DMSO zero. AID 651658. calls only at 9.99 µM. 340,000 compounds, 1.5% hits;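 active = melting point raised past a set limit in the mean and every replicate; inconclusive = no clear call; three in four hits are not shown here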
# Target sequence (Q9HCT0 whole entry, looked up): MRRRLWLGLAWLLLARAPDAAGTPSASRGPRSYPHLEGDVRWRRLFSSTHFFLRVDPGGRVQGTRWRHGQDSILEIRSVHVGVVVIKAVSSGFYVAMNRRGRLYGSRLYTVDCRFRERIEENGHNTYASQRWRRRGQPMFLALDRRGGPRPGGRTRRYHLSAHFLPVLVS
# Ecoli rRNA inh: inhibitors of bacterial rRNA selective over humanized ribosomes; 350,000 compounds, 1.6% hits; GFP signal change (wild-type ribosome), % (test concentration not listed); E. coli WT GFP vs humanized-ribosome RFP mutants, fluorescence, 24 h; hits give low values; DMSO median 0, no signal -100;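 active = significant combined selectivity score with lowered wild-type GFP, culture density cut under 30%, mutant RFP and density less affected; inactive = any of these conditions unmet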; note: one replicate is shown; some compounds called inactive have numbers as strong as hits
# T cruzi inh: T. cruzi replication inhibition | inhibition, % (test concentration not listed) | AID 1885 | T. cruzi beta-gal in NIH3T3, luminescence, 90 h | 300,000 compounds, 1.4% hits;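 active = mean inhibition across valid replicates above about 55%, limit read from the data; inconclusive = mean below that limit but half or more replicates reach it; inactive = mean below it, under half of replicates reach it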;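 note: signal also drops with host cell toxicity which is not excluded here; 0% = plate median of DMSO wells and 100% = zero luminescence signal; higher percent means less beta-gal luminescence so fewer parasites; stock transfer was 50 nL into about 50 µL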
# ALR H2O2 inh: blocks human ALR sulfhydryl oxidase activity; P55789; purified ALR, DTT oxidation, H2O2 HRP-luminol luminescence; inhibition, % (no concentration beside the values); 290,000 compounds, 3.8% hits;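 active = mean and each replicate at 75% or more; inconclusive = only one of the two met; inactive = neither met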;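 note: stock transfer was 7.5 nL into about 7.5 µL; 0% = neutral wells and 100% = wells with inactivated enzyme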
# Target sequence (P55789 whole entry, looked up): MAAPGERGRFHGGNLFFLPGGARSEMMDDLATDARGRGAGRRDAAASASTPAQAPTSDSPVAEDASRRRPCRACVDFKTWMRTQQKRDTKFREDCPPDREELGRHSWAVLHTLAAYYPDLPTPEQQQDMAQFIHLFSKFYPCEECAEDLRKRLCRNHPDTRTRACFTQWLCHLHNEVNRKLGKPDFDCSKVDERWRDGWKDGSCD
# Calb FLC: C. albicans growth modulation with fluconazole. AID 1979. C. albicans CaCi-2 (fluconazole-resistant clinical isolate) + fluconazole, Alamar Blue growth, 48 h. growth inhibition, % (no concentration beside the values). 300,000 compounds, 0.57% hits;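 active = most replicates above 75%; inconclusive = exactly half above 75%; inactive = most below 75%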;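 note: all wells also contain fluconazole at 8 µg/ml as a sub-toxic cotreatment; 0% = median of DMSO wells and 100% = median of geldanamycin control wells; wells of about 8 µL received 7.5 nL stock; the first replicate is given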
# Ecoli rRNA inh OD600: second read-out of Ecoli rRNA inh, no call of its own (marks repeat the call); OD600 change, %; measured here: OD600 growth;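 optical density of the mix in the first replicate; 0 = DMSO median and -100 = no signal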
# Ecoli rRNA inh RFP: also measured in Ecoli rRNA inh; calls as there; RFP signal change, %; measured here: RFP humanized mutant strains;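 first replicate; 0 = DMSO median and -100 = no signal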
# An asterisk follows results filed as active; i = inactive; ? = inconclusive; · = no result given.
SMILES,RanGTP-Imp inh,MLL AF4-AF9 inh,Beta cell apopt,FGF22 binding,Ecoli rRNA inh,Ecoli rRNA inh OD600,Ecoli rRNA inh RFP,T cruzi inh,ALR H2O2 inh,Calb FLC
C/C(=N\Nc1nc(C)cc(-c2ccccc2)n1)c1ccc(F)cc1,1.7,0.2,78.0*,i,2.9,-2.4,-3.9,6.9,-2.1,-5.5
O=C(c1ccc(N2CCN(C(=O)c3ccc(F)c(F)c3)CC2)cc1)c1cccc(F)c1,1.6,-4.8,2.5,i,0.1,3.0,0.3,29.2,-4.7,-8.4
Cc1ccc(OCC(=O)c2cc(C)n(CC(F)(F)F)c2C)c([N+](=O)[O-])n1,19.8*,5.9,·,i,·,·,·,8.9,-0.3,12.8
CC(C)(C)OC(=O)C[C@H]1C/C=C\C[C@@H](CC(=O)N(CCO)Cc2ccccc2)C(=O)N[C@@H](c2ccccc2)COC1=O,·,0.2,-4.8,i,4.2,7.9,2.7,·,-5.0,·
CCc1cccc2c(C(=O)Cn3nnc(-c4ccc(OC)c(OC)c4)n3)c[nH]c12,1.2,·,·,·,·,·,·,32.0,0.0,-6.0
O=C(CN1C(=O)COc2ccccc21)NCCCN1CCc2ccccc2C1,-5.1,4.9,-1.5,i,6.1,0.9,-6.1,7.4,-7.7,101.2*
COc1coc(C(O)CN)cc1=O (stereo not drawn),-2.2,-1.2,-3.7,i,14.6,11.5,-0.1,-3.7,-4.4,-2.8
CCOc1ccccc1NC(=O)CN1CCC(NC(=O)Nc2ccccc2)CC1,3.7,-1.1,7.5,i,-7.4,-16.4,0.7,23.5,1.9,-5.2
Cc1nnc2n(-c3ccccc3)c(=O)c3c4c(sc3n12)COC(C(C)C)C4 (stereo not drawn),6.1,·,-9.7,·,·,·,·,1.3,·,3.8
COc1ccccc1-c1nc(C#N)c(NCCCn2ccnc2)o1,4.8,0.0,-0.3,i,-5.6,-2.3,0.0,-4.0,25.9,-2.7
CC(=O)NC(CC(=O)Nc1nc(-c2ccccc2)c(C(C)=O)s1)c1ccccc1 (stereo not drawn),4.2,0.8,6.5,i,-6.5,-15.2,3.4,20.2,1.3,7.3
CCCn1c(SCC(=O)C(C)(C)C)nc2ccccc21,3.4,·,-5.7,·,·,·,·,15.7,-0.2,-37.1
CC1CCCN(c2cc(N(C)CCO)c([N+](=O)[O-])c3nonc23)C1 (stereo not drawn),2.2,-0.6,1.5,·,-25.2,-24.5,2.2,14.7,49.7,-4.3
O=C(Nc1ccc2c(c1)OCO2)c1cccc(S(=O)(=O)N2CCOCC2)c1,2.0,0.0,1.4,i,-1.7,0.2,-0.5,-4.4,-7.2,8.7
COc1cc(CC(=O)Nc2cccc(S(=O)(=O)N(C)c3ccccc3)c2)cc(OC)c1OC,·,0.4,13.5,i,-20.9,-39.1,-7.6,·,1.5,·
O=C(O)CCC(=O)Nc1ccc(Cc2ccc(NC(=O)CCC(=O)O)c(O)c2)cc1O,-3.8,·,-0.2,·,·,·,·,1.7,47.5,0.4
NS(=O)(=O)c1ccc(NC(=O)Nc2ccc3c(c2)OCO3)cc1,1.2,-0.4,-2.5,i,2.2,4.9,-1.2,7.5,-17.2,-12.6
O=C(Nc1c(C(=O)NCc2ccco2)cnn1-c1ccccc1)c1ccc(F)cc1,0.6,·,-0.3,·,·,·,·,3.9,3.4,19.8
CCC1(c2ccccc2)NC(=O)N(CC(=O)N2CCN(S(=O)(=O)c3ccccc3)CC2)C1=O (stereo not drawn),?,6.0,-6.8,i,12.0,2.0,-0.1,-0.9,-28.7,-0.2
CCOc1ccc(C(=O)Nc2ccc3[nH]ncc3c2)cc1,0.8,-1.4,3.2,i,12.3,13.5,1.8,2.2,-8.5,-0.4
Cc1cc(C)c(S(=O)(=O)NCc2ccncc2)c(C)c1,-0.1,·,63.8,·,·,·,·,-3.1,-2.9,15.1
COc1cccc(CNC(=O)Cn2cccc2)c1,?,·,2.4,·,·,·,·,-10.2,6.6,-14.8
CCC/C(=C1/C(=O)CC(C)(C)C(C(=O)OC)C1=O)N1CCCC1 (stereo not drawn),-3.0,·,-0.7,·,·,·,·,-5.7,-9.3,0.1
CCOC(=O)N1CCC(NC(=S)Nc2ccc3nc(N4CCN(C)CC4)cc(C)c3c2)CC1,-2.6,9.3,-11.7,i,-7.2,-3.0,-2.9,37.3,-3.8,-3.2
Cc1cc(C)nc(N2CCC(C(=O)O)CC2)n1,0.6,·,0.7,·,·,·,·,-9.8,·,-10.6
CC(C)N(Cc1cc2ccccc2[nH]c1=O)C(=O)c1cccnc1,-1.7,·,-4.0,·,·,·,·,-16.1,-6.0,-1.7
CCOC(=O)c1c(NC(=O)CSc2nnc(-c3ccco3)o2)sc(C)c1C,-1.8,·,-5.0,·,·,·,·,3.8,13.9,?
COc1ccc(N(CC(=O)Nc2cc(C(=O)O)ccc2C)S(=O)(=O)c2c(C)noc2C)cc1,-0.6,·,-4.3,·,·,·,·,-15.1,-11.9,-1.6
NC1=NC(=O)C(Cc2ccc(OC(F)(F)F)cc2)S1 (stereo not drawn),-1.0,-23.4,-11.5,i,-0.6,6.7,-6.1,-1.8,-3.8,14.1
NC(=S)NNc1cccc(Cl)c1,-3.7,·,-3.5,·,·,·,·,-0.2,97.9*,84.8*
COc1ccc(-c2nnn(CC(=O)N(CCCO)C(C(=O)NC3CCCC3)c3ccc(F)cc3)n2)cc1 (stereo not drawn),2.1,-0.5,-8.6,i,7.1,6.0,0.7,5.3,-8.4,4.9
Cc1ccc(-c2nn3c(C)nnc3s2)cc1NC(=O)C(C)C,-2.3,-2.4,-8.5,i,6.4,7.8,0.8,12.2,·,-2.2
O=C(CNc1ccccc1Cl)Nc1cc(S(=O)(=O)N2CCOCC2)ccc1Cl,·,0.7,2.9,i,-9.4,-15.2,6.0,·,-1.5,·
NC(=O)CCC(NS(=O)(=O)c1ccc(Cl)cc1)C(=O)NCc1ccc(Cl)cc1 (stereo not drawn),6.8,1.0,1.2,i,1.9,3.3,-8.3,12.6,-1.0,4.6
O=C(NCc1ccccn1)C1(C(F)(F)F)C/C(=C\CCO)CCCO1 (stereo not drawn),0.4,·,·,i,3.5,7.4,-11.4,-10.9,-4.7,0.6
Cc1cc(NC(=O)CS(=O)CC(=O)Nc2c(C)cccc2C)ccc1-n1cnnn1 (stereo not drawn),3.0,-5.8,·,i,·,·,·,6.7,-2.3,0.6
Cc1ccc(N=C2NC(=O)C(CC(=O)NCc3ccccc3)S2)cc1C (stereo not drawn),-2.7,·,-2.2,·,·,·,·,-5.2,4.9,?
CCC(C)(C)n1nnnc1C(c1cc2ccc(OC)cc2[nH]c1=O)N1CCCCC1 (stereo not drawn),1.6,·,-4.2,·,·,·,·,-3.8,-27.6,-0.8
COc1ccc(Cc2nc3ccc(C(=O)N4CCN(C)C(C)C4)cc3o2)cc1OC (stereo not drawn),0.1,-1.6,13.4,i,3.7,-4.4,-0.3,-9.2,4.8,0.3
Cc1cc(C)n2nc3nc(N4CCCCC4)nc(-c4ccco4)c3c2n1,3.0,·,4.1,·,·,·,·,-13.9,4.3,3.9
Cc1ccc(S(=O)(=O)CC(=O)NCc2ccc(Cl)cc2)cc1,·,-0.6,1.7,i,9.1,10.6,-0.8,·,-5.1,·
Cc1ccc(-c2nnc(NC3CCCC3)s2)cc1,0.8,6.8,-4.2,i,-11.6,-8.0,-1.5,-7.3,49.4,-8.0
CC1(C)NC(=O)N(CC(O)CN2C(=O)NC(C)(C)C2=O)C1=O,-0.4,·,-3.6,·,·,·,·,-11.5,-0.4,-12.8
COc1ccccc1CNC(=O)CC1Sc2ccccc2NC1=O (stereo not drawn),-1.7,-2.3,-1.1,i,2.5,13.6,0.0,-9.3,7.5,-16.6
O=C(NNC(=O)C1CCC1)c1ccc(Cl)cc1,3.9,-1.4,·,i,16.0,13.1,2.1,-10.1,2.6,-0.3

# 2 records picked at random from those above:
SMILES,RanGTP-Imp inh,MLL AF4-AF9 inh,Beta cell apopt,FGF22 binding,Ecoli rRNA inh,Ecoli rRNA inh OD600,Ecoli rRNA inh RFP,T cruzi inh,ALR H2O2 inh,Calb FLC
COc1cc(CC(=O)Nc2cccc(S(=O)(=O)N(C)c3ccccc3)c2)cc(OC)c1OC,·,0.4,13.5,i,-20.9,-39.1,-7.6,·,1.5,·
COc1ccccc1CNC(=O)CC1Sc2ccccc2NC1=O (stereo not drawn),-1.7,-2.3,-1.1,i,2.5,13.6,0.0,-9.3,7.5,-16.6

# Next results:
SMILES,RanGTP-Imp inh,MLL AF4-AF9 inh,Beta cell apopt,FGF22 binding,Ecoli rRNA inh,Ecoli rRNA inh OD600,Ecoli rRNA inh RFP,T cruzi inh,ALR H2O2 inh,Calb FLC
CCC(C)Sc1nc2c(c(=O)[nH]c(=O)n2C)n1CC(O)COc1ccccc1C (stereo not drawn),-5.8,·,1.4,·,·,·,·,20.7,·,15.7
O=C1c2oc3ccc(Cl)cc3c(=O)c2C(c2cccc(Br)c2)N1CCO (stereo not drawn),0.6,·,1.4,·,·,·,·,13.7,-0.6,-1.5
Cc1ccc(/C=N/NC(=O)NN(C)c2ncc(C(F)(F)F)cc2Cl)cc1,0.1,-0.9,4.5,·,8.1,6.4,-0.7,20.0,23.4,5.1
CCOC(=O)C1=C(C)N(C)C(=S)N(C)C1c1ccc(OC)cc1 (stereo not drawn),-0.9,-0.6,-0.6,i,-0.1,8.4,1.9,4.2,9.4,-11.0
Cc1cc(C)nc(N2CCN(c3ccc(F)cc3)CC2)n1,2.5,4.0,·,i,5.6,3.4,-0.7,-6.2,39.1,-1.0
NS(=O)(=O)c1ccc(NC(=O)COC(=O)CSc2n[nH]c(-c3ccccc3)n2)cc1,1.6,·,·,·,·,·,·,-11.8,3.5,4.8
Cc1ccc(NC(=S)N2CCC(NC(=O)C3CCCCC3)CC2)cc1C,-0.9,1.1,-1.7,i,15.0,11.8,3.8,-14.5,-6.3,11.9
CN(Cc1nc(-c2ccc(Cl)cc2)no1)C(=O)c1ccco1,-0.9,0.2,-3.0,i,-13.6,-18.3,2.2,8.2,-7.5,-12.4
COCCn1c(SCc2ccc(C(=O)OC)o2)nnc1-c1c[nH]c2ccccc12,-1.8,12.6,-4.5,i,1.2,-1.4,-2.3,-3.8,6.8,2.6

# Full records from above.
# Listed for CCOC(=O)C1=C(C)N(C)C(=S)N(C)C1c1ccc(OC)cc1 (stereo not drawn) : RanGTP-Imp inh = -0.9; MLL AF4-AF9 inh = -0.6; Beta cell apopt = -0.6; FGF22 binding = i; Ecoli rRNA inh = -0.1; Ecoli rRNA inh OD600 = 8.4; Ecoli rRNA inh RFP = 1.9; T cruzi inh = 4.2; ALR H2O2 inh = 9.4; Calb FLC = -11.0
# Listed for NS(=O)(=O)c1ccc(NC(=O)COC(=O)CSc2n[nH]c(-c3ccccc3)n2)cc1 : RanGTP-Imp inh = 1.6; MLL AF4-AF9 inh = ·; Beta cell apopt = ·; FGF22 binding = ·; Ecoli rRNA inh = ·; Ecoli rRNA inh OD600 = ·; Ecoli rRNA inh RFP = ·; T cruzi inh = -11.8; ALR H2O2 inh = 3.5; Calb FLC = 4.8

# Screens: PubChem, Broad Institute

# The list is partial (hit frequency here may not be typical).
